GCN5L2 inh: blocks human GCN5L2 histone acetyltransferase | Q92830 | GCN5L2 HAT assay, ThioGlo1 CoA-SH fluorescence | Potency, µM (top dose mostly 58.9 µM), for inactives: at the top dose activity change, negative = inhibition, usual class: inhibitors | actives 0.21% (n = 390,000)
Target sequence (Q92830 whole entry, looked up): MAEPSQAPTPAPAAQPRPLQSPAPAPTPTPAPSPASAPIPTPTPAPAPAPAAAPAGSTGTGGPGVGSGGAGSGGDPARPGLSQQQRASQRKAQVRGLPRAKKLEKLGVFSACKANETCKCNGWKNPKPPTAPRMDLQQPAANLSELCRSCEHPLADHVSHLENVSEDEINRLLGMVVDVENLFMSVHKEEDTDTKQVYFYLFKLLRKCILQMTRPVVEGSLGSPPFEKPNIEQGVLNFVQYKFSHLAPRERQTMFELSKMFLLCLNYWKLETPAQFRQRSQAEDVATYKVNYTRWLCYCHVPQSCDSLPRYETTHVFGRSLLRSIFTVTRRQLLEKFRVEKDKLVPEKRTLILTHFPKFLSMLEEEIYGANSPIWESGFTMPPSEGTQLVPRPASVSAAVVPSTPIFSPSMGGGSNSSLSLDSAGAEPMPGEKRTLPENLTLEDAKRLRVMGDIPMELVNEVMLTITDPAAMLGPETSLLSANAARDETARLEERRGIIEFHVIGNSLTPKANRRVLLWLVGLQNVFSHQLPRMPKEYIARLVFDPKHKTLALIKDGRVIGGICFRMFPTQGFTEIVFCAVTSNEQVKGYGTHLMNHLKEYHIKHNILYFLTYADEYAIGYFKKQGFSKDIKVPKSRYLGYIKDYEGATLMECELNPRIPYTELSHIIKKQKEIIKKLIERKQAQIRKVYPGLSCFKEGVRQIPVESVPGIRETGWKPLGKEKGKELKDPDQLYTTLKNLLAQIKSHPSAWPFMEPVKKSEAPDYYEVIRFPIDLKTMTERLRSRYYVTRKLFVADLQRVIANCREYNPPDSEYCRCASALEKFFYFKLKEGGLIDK
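ThioGlo1-coupled HAT assay: 20nM GCN5L2, 70uM acetyl-CoA, 75uM H3(1-25) peptide, pH 7.5. Fluorescence read at 340/540nm at start and after 20 min at room temperature.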
DT40 TDP1 CPT: growth inhibition of DT40 Tdp1-/-;hTDP1 cells with camptothecin (screen for TDP1 inhibitors). chicken DT40 Tdp1-/-;hTDP1 cells + 20 nM CPT, ATP luminescence, 48 h. AID 686979. Potency, µM (highest dose often 46.2 µM), for inactives: at the top dose activity change, negative = growth inhibition, hits mostly inhibitors. actives 12% (n = 420,000); note: nearly all actives have a fitted effect of over 55% in size
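Chicken DT40 Tdp1-/- cells complemented with human TDP1, 400 cells/well, exposed to compounds plus 20 nM camptothecin for at least 48 h at 37 C; viability read as ATP content by CellTiter-Glo luminescence.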
* hit, by the source's call; ? = inconclusive; [ ] = remark or other dose. Calls come from the whole dose curve; as a rule, active = well fitted curve in the direction sought with a large enough effect; inconclusive = small, poorly fitted or top-dose-only effect, or another doubt; inactive = no such curve, though single readings can be large; an effect the other way counts as inactive or inconclusive. % is set by controls: 0 for no effect and ±100 for the full control effect; potency is the fitted concentration of half-maximal effect. The list is partial, and most or all hits are left out here.

Start of the data: the first two compounds (preview)
Values in the order – GCN5L2 inh | DT40 TDP1 CPT
[1] Cc1nc(N2CCOCC2)c2c(C)c(C(=O)Nc3ccc(F)cc3F)sc2n1
  -2% | -28%
[2] COC(=O)CNc1ccc2c(c1)OCO2
  0% | -7%

The whole of this part, previewed entries included:
Values in the order – GCN5L2 inh | DT40 TDP1 CPT
[1] Cc1nc(N2CCOCC2)c2c(C)c(C(=O)Nc3ccc(F)cc3F)sc2n1
  -2% | -28%
[2] COC(=O)CNc1ccc2c(c1)OCO2
  0% | -7%
[3] CCOC(=O)C1=C(COC(=O)CSc2ccc(C)cc2C)NC(=O)NC1C (stereo unspecified)
  1% | -2%
[4] COCC1CCN(C(=O)C2CCC(=O)N(Cc3cccc(F)c3)C2)CC1 (stereo unspecified)
  0% | -3%
[5] C=CCNc1nc2ccccc2nc1NS(=O)(=O)c1cccs1
  -3% | -8%
[6] CC1(c2ccccc2)O[C@@H]2C[C@H]3[C@@H]4CCC5=CC(=O)C=C[C@]5(C)[C@@]4(F)[C@@H](O)C[C@]3(C)[C@]2(C(=O)CO)O1 (stereo partly specified)
  -5% | ?
[7] COC(=O)CN(Cc1ccccc1)S(=O)(=O)c1ccc(OC)c(OC)c1
  -3% | -8%
[8] CCOc1ccc(NC(=O)CSc2nnc3c(C)cc4ccccc4n23)cc1
  -4% | 6%
[9] NC(=O)C1CCN(Cc2nc(-c3cccs3)no2)CC1
  -5% | -7%
[10] CCCn1c(SCC(=O)OCC)nc(C(F)(F)F)cc1=O
  -3% | 0%
[11] O=C(O)Cc1ccc(NC(=O)c2ccc(Cl)c(Cl)c2)cc1
  -3% | 26%
[12] COc1ccc(C(=O)c2ccccc2)cc1Br
  -11% | -17%
[13] COc1ccc(C(=O)N/C(=C/c2ccc(Cl)cc2)C(=O)Nc2ccc(C(=O)O)cc2)cc1
  -29% | 16%
[14] COc1cc(Cl)c(C)cc1NC(=O)c1cc(S(=O)(=O)N(C)C)ccc1N1CCCC1
  -11% | ?
[15] COc1ccc(N(C(=O)c2ccn[nH]2)C(C(=O)NC(C)(C)C)c2ccc(F)cc2)cc1 (stereo unspecified)
  -1% | -16%

Retrieved one by one from the entries so far, 2 records:
Values in the order – GCN5L2 inh | DT40 TDP1 CPT
[2] COC(=O)CNc1ccc2c(c1)OCO2
  0% | -7%
[15] COc1ccc(N(C(=O)c2ccn[nH]2)C(C(=O)NC(C)(C)C)c2ccc(F)cc2)cc1 (stereo unspecified)
  -1% | -16%

Next part
Values in the order – GCN5L2 inh | DT40 TDP1 CPT
[16] Nc1ccc(C(=O)Nc2cccc(NC(=O)c3ccc(N)cc3)c2)cc1
  -2% | -30%
[17] O=C(NC(Cc1c[nH]c2ccccc12)C(=O)Nc1ccc(F)c([N+](=O)[O-])c1)c1cccs1 (stereo unspecified)
  -10% | ?
[18] CCOC(=O)C1=C(C)Nc2sc(C(=O)c3ccc(F)cc3)c(N)c2C1c1ccc(C(=O)OC)cc1 (stereo unspecified)
  -16% | 18µM*
[19] O=[N+]([O-])c1ccc2c(c1Nc1ccccc1Cl)=NC1(CCCCC1)N=2
  -6% | -26%
[20] CC(C)C(=O)N1CCN(c2cc(N3CCN(C)CC3)c(F)cc2[N+](=O)[O-])CC1
  -21% | 1%
[21] O=[n+]1cc(-c2ccc(Cl)cc2)n([O-])c2c1CCC2
  -2% | -15%
[22] CCN(CC)C(=O)CN(c1ccc2c(c1)OCO2)S(C)(=O)=O
  -1% | -6%
[23] O=C(NNS(=O)(=O)c1ccccc1C(F)(F)F)c1cc2ncc(C(F)(F)F)cc2s1
  -6% | ?
[24] O=c1oc(-c2cccs2)nc2ccc(Cl)cc12
  -6% | -8%
[25] COc1ccc(C)cc1NC(=O)CNC(c1ccccc1)c1ccccc1
  -18% | ?
[26] CC(C)C(C)NC(=O)COc1ncnc2ccccc12 (stereo unspecified)
  1% | 5%
[27] O=C(NCCCN1CCCCCC1)c1ccc(CS(=O)(=O)Cc2ccccc2F)o1
  -1% | -2%
[28] Cc1[nH]c2ccccc2c1C(=O)CN1CCCC(C)C1 (stereo unspecified)
  15% | 4%
[29] NNC(=O)c1sccc1OCc1ccc(Cl)cc1Cl
  -5% | -4%
[30] CCOC(=O)c1c(C)[nH]c(C(=O)OCC(=O)Nc2cccnc2Cl)c1C
  -2% | -11%

Taken from above.
GCN5L2 inh result of COc1cc(Cl)c(C)cc1NC(=O)c1cc(S(=O)(=O)N(C)C)ccc1N1CCCC1 reads -11%
GCN5L2 inh result of COc1ccc(C)cc1NC(=O)CNC(c1ccccc1)c1ccccc1 reads -18%
GCN5L2 inh result of NNC(=O)c1sccc1OCc1ccc(Cl)cc1Cl reads -5%

(list continues)
Values in the order – GCN5L2 inh | DT40 TDP1 CPT
[31] Cc1oc(-c2ccccc2Cl)nc1CS(=O)(=O)CC(=O)NCCc1ccccc1
  -6% | -11%
[32] COc1ccc(C)c2sc(NC(=O)c3ccc(S(=O)(=O)N4CCOCC4)cc3)nc12
  -25% | ?
[33] CC(=O)N1c2ccc(S(=O)(=O)N(C)CC(=O)NC3CCCC3)cc2CC1C (stereo unspecified)
  -1% | ?
[34] O=C(N/N=C/c1cccnc1)c1cc(-c2cccs2)nc2ccccc12
  -16% | ?
[35] CCCC(=O)n1nc(NCc2ccc(OC)cc2)nc1NCc1ccc(OC)cc1
  -11% | -3%
[36] Cc1ccc(C(=O)NCC(=O)OCc2c(F)cccc2Cl)s1
  -7% | 1%
[37] Cc1ccc(S(=O)(=O)Oc2ccc(/C=N/NC(=O)c3nn(C)cc3[N+](=O)[O-])cc2)cc1
  -11% | 20%
[38] COc1ccc(C(=O)Nc2ccccc2C(=O)N(Cc2ccco2)C(C(N)=O)C(C)C)cc1 (stereo unspecified)
  -29% | -18%
[39] Cc1nn(CCO)c2ncc(C(=O)c3cc(F)ccc3O)cc12
  0% | 2%
[40] CCOC(=O)c1ccc(Oc2cn[nH]c2-c2ccc(OCC(=O)NN)cc2O)cc1
  2% | -14%
[41] COc1ccc(S(=O)(=O)CC(O)CN2CCCC2=O)cc1 (stereo unspecified)
  ? | 2%
[42] Cc1c(C(=O)N2CCOCC2)sc(NC(=O)c2ccc([N+](=O)[O-])cc2)c1C#N
  -9% | ?
[43] CC(CCc1ccccc1)NC(=O)c1ccccc1C(=O)O (stereo unspecified)
  0% | 5%
[44] NC(=O)NC(=O)COC(=O)CNS(=O)(=O)c1ccc(F)c(F)c1F
  -14% | 2%
[45] Cc1cc(C)cc(N2C(=O)N(Cc3cc(=O)n4ccccc4n3)c3ccccc3S2(=O)=O)c1
  -5% | ?
[46] COc1ccc(C(=O)C[n+]2cc(Br)cc3ccccc32)cc1[N+](=O)[O-]
  -15% | 0%
[47] COc1ccc(NC(=O)CCC2CCCCC2)cc1S(=O)(=O)N1CCCCC1
  -3% | ?
[48] COc1ccc(NC(=O)c2c(SC)nsc2SC)cc1
  -6% | -8%
[49] COCCn1c(=O)c2c(nc3n2CC(C)CN3CCc2ccccc2)n(C)c1=O (stereo unspecified)
  -3% | ?
[50] C=CCn1c(=O)c(C(=O)Nc2ccccc2O)c(O)c2ccccc21
  -3% | -15%
[51] Cc1ccc2c(c1)N(CCC(=O)NCCCN1CCCC1)C(=O)CO2
  -1% | 10%
[52] CCCN1CCC(NC(=S)Nc2ccc(OC)c(OC)c2)CC1
  -4% | ?
[53] Cc1ccsc1CN(C)C(=O)C(NC(=O)c1cccc(S(=O)(=O)N2CCOCC2)c1)C(C)C (stereo unspecified)
  0% | 12µM*
[54] COc1cc2c(cc1OC)C1(CCCC1)C(N)=C2C#N
  -1% | ?
[55] COc1ccc(CCN2C(=O)c3[nH]nc(-c4ccccc4O)c3C2c2ccc(OC)cc2)cc1 (stereo unspecified)
  -1% | ?
[56] COC(=O)[C@H](CC(C)C)NC(=O)N1CCN(c2cccc(C(F)(F)F)c2)CC1
  -10% | ?
[57] CCC(=O)NCCNc1nc2cc(C)cc(C)c2cc1C#N
  0% | 1%
[58] CCCCNC(=O)Cn1cnc([N+](=O)[O-])n1
  2% | 2%
[59] COc1ccc(-n2ncc3c(SCC(=O)NNC(C)=O)ncnc32)cc1
  ? | 5%
[60] Cc1ccc(C)c(N2CC(C(=O)Nc3nccs3)CC2=O)c1 (stereo unspecified)
  -3% | 7%

Whole records as entered above:
Profile of COCCn1c(=O)c2c(nc3n2CC(C)CN3CCc2ccccc2)n(C)c1=O (stereo unspecified) : GCN5L2 inh: -3%; DT40 TDP1 CPT: ?
Profile of COc1ccc(C(=O)C[n+]2cc(Br)cc3ccccc32)cc1[N+](=O)[O-] : GCN5L2 inh: -15%; DT40 TDP1 CPT: 0%
Profile of COc1ccc(-n2ncc3c(SCC(=O)NNC(C)=O)ncnc32)cc1 : GCN5L2 inh: ?; DT40 TDP1 CPT: 5%

Next part
Values in the order – GCN5L2 inh | DT40 TDP1 CPT
[61] Cc1cccc(NC(=O)C2CCN(S(=O)(=O)c3cccc4nsnc34)CC2)c1C
  4% | -25%
[62] COc1cc(OC)cc(-c2nc3cc(C)ccc3o2)c1
  -5% | ?
[63] CC1Cc2ccccc2N1CC(=O)Nc1ccc(Cl)c(S(=O)(=O)N(C)C)c1 (stereo unspecified)
  -4% | 6%
[64] O=C(NNc1nc2ccccc2o1)c1ccccc1
  -6% | -2%
[65] COc1cc(OC)cc(C(=O)OCC(=O)NCc2ccc3c(c2)OCO3)c1
  -1% | 4%
[66] O=C(CN1CCN(Cc2ccccc2)CC1)N/N=C/c1cccnc1
  2% | 3%
[67] COC(=O)c1cc(=O)n2c(-c3ccc(OC)cc3)csc2n1
  2% | 4%
[68] CCn1c(SCC(=O)N2CCCCC2)nnc1-c1ccc(S(=O)(=O)N2CCN(C)CC2)cc1
  -2% | -5%
[69] Cc1c(C(=O)N(Cc2ccncc2)CC2CCCO2)oc2c(F)cccc12 (stereo unspecified)
  1% | -12%
[70] CC1(C)Cc2nc3oc4c(NCCCN5CCOCC5)ncnc4c3cc2CO1
  -1% | -21%
[71] N#Cc1c(Nc2ccccc2)c(C=O)c[nH]c1=O
  0% | 11%
[72] COc1ccc(-n2c(Cc3cccn3C)nnc2SCC(=O)Nc2cccc(OC)c2)cc1
  4% | -11%
[73] CCc1nnc(NC(=O)CSc2nc3ccc(OC)cc3[nH]2)s1
  2% | 2%
[74] COc1ccc(NCc2nnc(SCC(=O)c3ccc(C)cc3)o2)cc1
  -2% | -21%
[75] CCOC(=O)c1c(N2C(=O)C3C4C=CC(C4)C3C2=O)sc2c1CCC(C)C2 (stereo unspecified)
  -7% | 0%
[76] O=c1oc(-c2ccco2)nc2sc3c(c12)CCCC3
  -6% | -3%
[77] Cc1cc(=O)[nH]c(SCC(=O)Nc2ccc3c(c2)CCC3)c1C#N
  -6% | 1%
[78] C=CCNc1ncnc2ccccc12
  0% | ?
[79] Cc1sc2nc(CSC(C)C(=O)Nc3ccc(C(N)=O)cc3)[nH]c(=O)c2c1C (stereo unspecified)
  4% | -6%
[80] Cc1ccc(S(=O)(=O)N2CCCNCC2)cc1
  -1% | 5%
[81] COc1ccccc1-c1nnc(SCc2nc3ccccc3[nH]2)n1C
  -4% | -26%
[82] CCOC(=O)C(=O)/C(C#N)=C/Nc1ccc(Cl)cc1
  -4% | 0%
[83] O=C(/C=C/c1ccccc1Cl)NCCc1ccccc1
  1% | -6%
[84] Cn1ccnc1SCC(=O)NC1CC1
  1% | 4%
[85] CC(=O)NCCC1CCN(C(=O)c2cc(COc3ccc(C)nc3)on2)CC1
  -14% | ?
[86] CCC(C)n1c(S(=O)(=O)O)nc2ccccc21 (stereo unspecified)
  1%[0.501 µM] | -1%
[87] Cc1[nH]n(-c2ccccc2)c(=O)c1-c1ccccc1
  -1% | 6%

Source: PubChem BioAssay
